High-throughput results as filed in PubChem.
FGF22 binding: binders of human FGF22 protein, primary screen, FGF22 synaptogenesis inhibitor project, biophysical, thermal shift, single point | AID 651658, 2012 | recombinant FGF22 thermal shift, SYPRO orange fluorescence; percent of sucrose octasulfate shift, DMSO zero | actives 1.5% (n = 340,000) | calls only at 9.99 µM;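 active = melting point raised past a set limit in the mean and every replicate; three in four hits are not shown here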
Target sequence (Q9HCT0 whole entry, looked up): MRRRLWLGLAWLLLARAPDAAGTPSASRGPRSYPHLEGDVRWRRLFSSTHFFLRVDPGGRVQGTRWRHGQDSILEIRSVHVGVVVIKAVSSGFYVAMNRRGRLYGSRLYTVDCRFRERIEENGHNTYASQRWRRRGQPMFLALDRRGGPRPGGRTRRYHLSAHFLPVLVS
Ecoli rRNA inh: reduced GFP signal of wild-type E. coli, primary screen, bacterial rRNA inhibitor project, GFP/RFP fluorescence, OD600, single point. E. coli WT GFP vs humanized-ribosome RFP mutants, 24 h; active compounds read low; DMSO median 0, no signal -100. GFP signal change (wild-type ribosome), % (no concentration beside the values). actives 1.6% (n = 350,000). AID 720706, 2013;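 active = significant combined selectivity score with lowered wild-type GFP, culture density cut under 30%, mutant RFP and density less affected; inactive = any of these conditions unmet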; note: one replicate is shown; some compounds called inactive have numbers as strong as hits
MLL AF4-AF9 inh: inhibitors of AF4 peptide binding to AF9, primary screen, biochemical, AlphaScreen, biotin-AF4 peptide, FLAG-AF9, single point | actives 0.47% (n = 350,000) | Protein AF-9 (Homo sapiens), P42568 | inhibition, % at 10 µM;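 active = every replicate reaching a set inhibition limit, whatever the replicate mean, cut at about 25% in these data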;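 note: 0% = plate neutral control median and 100% = total signal loss; the record names both 10 and 1 µM as test concentration; the first replicate is given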
Target sequence (P42568 whole entry, looked up): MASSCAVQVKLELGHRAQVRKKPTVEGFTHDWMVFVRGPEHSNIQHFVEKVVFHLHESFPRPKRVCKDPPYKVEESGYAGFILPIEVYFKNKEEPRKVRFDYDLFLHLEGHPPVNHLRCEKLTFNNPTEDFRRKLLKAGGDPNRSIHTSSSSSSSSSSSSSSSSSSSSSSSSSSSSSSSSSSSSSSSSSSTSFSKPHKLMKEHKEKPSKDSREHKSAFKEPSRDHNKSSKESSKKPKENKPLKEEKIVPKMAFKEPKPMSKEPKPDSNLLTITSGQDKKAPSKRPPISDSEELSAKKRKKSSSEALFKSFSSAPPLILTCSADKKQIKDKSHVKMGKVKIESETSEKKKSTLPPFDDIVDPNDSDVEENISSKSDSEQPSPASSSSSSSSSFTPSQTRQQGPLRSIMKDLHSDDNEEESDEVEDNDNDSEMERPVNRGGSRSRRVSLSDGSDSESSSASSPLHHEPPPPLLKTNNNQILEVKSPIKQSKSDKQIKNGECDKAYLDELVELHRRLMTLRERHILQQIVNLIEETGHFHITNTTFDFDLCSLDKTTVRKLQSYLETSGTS
Ecoli rRNA inh OD600: recorded beside Ecoli rRNA inh, whose call it bears; OD600 change, %; measured here: OD600 growth;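 optical density of the mix in the first replicate; 0 = DMSO median and -100 = no signal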
Ecoli rRNA inh RFP: also measured in Ecoli rRNA inh; calls as there; RFP signal change, %; measured here: RFP humanized mutant strains;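 first replicate; 0 = DMSO median and -100 = no signal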
* = called active by the depositor; i = inactive. Only part of the results is shown; count on the stated rates, not on these rows.

Start of the data: the first 2 records as a preview:
Labels used below: A = FGF22 binding; B = Ecoli rRNA inh; C = Ecoli rRNA inh OD600; D = Ecoli rRNA inh RFP; E = MLL AF4-AF9 inh
Cc1ccc(S(=O)(=O)N(C)C[C@H]2Oc3c(NC(=O)c4ccc(-c5nccs5)cc4)cccc3C(=O)N([C@H](C)CO)C[C@H]2C)cc1
  A: i; B: 1; C: 1; D: -1.7; E: 0.3
CCCN(C)C[C@@H]1Oc2ncc(-c3ccccc3F)cc2C(=O)N([C@@H](C)CO)C[C@@H]1C
  A: i; B: 9; C: 20; D: -1.3; E: -0.6

The whole of this part, repeating the preview:
Labels used below: A = FGF22 binding; B = Ecoli rRNA inh; C = Ecoli rRNA inh OD600; D = Ecoli rRNA inh RFP; E = MLL AF4-AF9 inh
Cc1ccc(S(=O)(=O)N(C)C[C@H]2Oc3c(NC(=O)c4ccc(-c5nccs5)cc4)cccc3C(=O)N([C@H](C)CO)C[C@H]2C)cc1
  A: i; B: 1; C: 1; D: -1.7; E: 0.3
CCCN(C)C[C@@H]1Oc2ncc(-c3ccccc3F)cc2C(=O)N([C@@H](C)CO)C[C@@H]1C
  A: i; B: 9; C: 20; D: -1.3; E: -0.6
CCn1c(=S)[nH]c2c(=O)n(C)c(=O)n(C)c21
  A: i; B: 17; C: 36; D: -1.1; E: -4.5
C[C@H]1CN([C@@H](C)CO)C(=O)Cc2cc(NC(=O)Nc3ccccc3)ccc2O[C@H]1CN(C)S(=O)(=O)c1cccs1
  A: i; B: -1; C: -15; D: 4.9; E: 2.6
COc1ccc(C(=O)Nc2ccc(C)c(S(=O)(=O)N3CCOCC3)c2)cc1S(=O)(=O)N1CCCC1
  A: i; B: -45; C: -70; D: -8.4; E: -0.6
C[C@@H]1CN([C@H](C)CO)C(=O)c2cccc(NS(=O)(=O)c3ccc(Cl)cc3)c2O[C@H]1CN(C)Cc1ccc(Oc2ccccc2)cc1
  A: i; B: -1; C: -7; D: -1.6; E: 1.1
OC(c1ccccc1)c1ncc(-c2ccccc2Cl)[nH]1 (stereo not given)
  A: i; B: 5; C: 13; D: -0.2; E: 4.2
Cc1noc(C)c1S(=O)(=O)Nc1ccc2c(c1)C(=O)N([C@H](C)CO)C[C@H](C)[C@H](CN(C)C(=O)c1ccncc1)OCCCC[C@@H](C)O2
  A: i; B: 3; C: 6; D: -4.2; E: -0.4
CCCNC(=O)N[C@H]1C=C[C@@H](CC(=O)NCCc2ccccc2)O[C@@H]1CO
  A: i; B: 0; C: 0; D: -1.2; E: 0.5
O=C(c1ccccn1)N1CC2(C1)[C@@H](c1ccccc1)[C@@H](CO)N2Cc1ccc(Cl)cc1
  A: i; B: -14; C: -52; D: 18; E: 1.6

Part of the list above, in markdown:
| Molecule | FGF22 binding | Ecoli rRNA inh | Ecoli rRNA inh OD600 | Ecoli rRNA inh RFP | MLL AF4-AF9 inh |
| --- | --- | --- | --- | --- | --- |
| Cc1ccc(S(=O)(=O)N(C)C[C@H]2Oc3c(NC(=O)c4ccc(-c5nccs5)cc4)cccc3C(=O)N([C@H](C)CO)C[C@H]2C)cc1 | i | 1 | 1 | -1.7 | 0.3 |
| CCCN(C)C[C@@H]1Oc2ncc(-c3ccccc3F)cc2C(=O)N([C@@H](C)CO)C[C@@H]1C | i | 9 | 20 | -1.3 | -0.6 |
| CCn1c(=S)[nH]c2c(=O)n(C)c(=O)n(C)c21 | i | 17 | 36 | -1.1 | -4.5 |
| C[C@H]1CN([C@@H](C)CO)C(=O)Cc2cc(NC(=O)Nc3ccccc3)ccc2O[C@H]1CN(C)S(=O)(=O)c1cccs1 | i | -1 | -15 | 4.9 | 2.6 |
| COc1ccc(C(=O)Nc2ccc(C)c(S(=O)(=O)N3CCOCC3)c2)cc1S(=O)(=O)N1CCCC1 | i | -45 | -70 | -8.4 | -0.6 |
| C[C@@H]1CN([C@H](C)CO)C(=O)c2cccc(NS(=O)(=O)c3ccc(Cl)cc3)c2O[C@H]1CN(C)Cc1ccc(Oc2ccccc2)cc1 | i | -1 | -7 | -1.6 | 1.1 |
| OC(c1ccccc1)c1ncc(-c2ccccc2Cl)[nH]1 (stereo not given) | i | 5 | 13 | -0.2 | 4.2 |
| Cc1noc(C)c1S(=O)(=O)Nc1ccc2c(c1)C(=O)N([C@H](C)CO)C[C@H](C)[C@H](CN(C)C(=O)c1ccncc1)OCCCC[C@@H](C)O2 | i | 3 | 6 | -4.2 | -0.4 |
| CCCNC(=O)N[C@H]1C=C[C@@H](CC(=O)NCCc2ccccc2)O[C@@H]1CO | i | 0 | 0 | -1.2 | 0.5 |
| O=C(c1ccccn1)N1CC2(C1)[C@@H](c1ccccc1)[C@@H](CO)N2Cc1ccc(Cl)cc1 | i | -14 | -52 | 18 | 1.6 |

Next records follow:
Labels used below: A = FGF22 binding; B = Ecoli rRNA inh; C = Ecoli rRNA inh OD600; D = Ecoli rRNA inh RFP; E = MLL AF4-AF9 inh
CO[C@H]1CN(C)C(=O)c2ccc(NC(C)=O)cc2OC[C@H](C)N(C(=O)c2ccccc2)C[C@H]1C
  A: i; B: 4; C: 7; D: -2.7; E: 0.4
CCCNC(=O)N1C[C@H]2[C@@H](c3ccccc31)[C@@H](CO)N2Cc1ccc2c(c1)OCO2
  A: i; B: -1; C: 2; D: -0.6; E: -1.1
CC(O)(c1ccc(F)c(F)c1)c1nc(-c2ccc(S(C)(=O)=O)cc2)cs1 (stereo not given)
  A: i; B: -9; C: -16; D: -2.5; E: -3.9
C[C@@H]1ON(C)[C@H]2C[C@H]3c4cc(N5CCOCC5)ccc4CCN3C(=O)[C@@H]12
  A: i; B: 3; C: 12; D: 3.5; E: -1.0
COc1ccc(S(=O)(=O)N(C)C[C@H]2Oc3ccc(NC(=O)Nc4ccc5c(c4)OCO5)cc3C(=O)N([C@H](C)CO)C[C@H]2C)cc1
  A: i; B: -3; C: -13; D: -8.1; E: 2.7
CCC(=O)N(C)C[C@@H]1Oc2ncc(-c3ccc(C)cc3)cc2C(=O)N([C@@H](C)CO)C[C@@H]1C
  A: i; B: 6; C: 7; D: 1.5; E: -11
O=C1NC[C@H](CCCCN2C[C@@H](Cc3ccccc3)N(Cc3ccccc3)C(=O)C2=O)N(CCC2CCCCC2)C1=O
  A: i; B: -24; C: -33; D: -8.3; E: -3.0
CCN1[C@H](C(=O)NCCc2cn(C)cn2)[C@@H](CO)[C@@H]2Cn3c(ccc(-c4ccc(F)cc4)c3=O)[C@@H]21
  A: i; B: 0; C: -7; D: -0.1; E: 0.7
C[C@@H]1CCCCO[C@@H](CN(C)S(=O)(=O)c2ccc(Cl)cc2)[C@@H](C)CN([C@H](C)CO)C(=O)c2cc(NC(=O)c3ccncc3)ccc2O1
  A: i; B: -1; C: -2; D: -2.4; E: 3.5
C[C@H](CO)N1C[C@H](C)[C@@H](CN(C)S(=O)(=O)c2cn(C)cn2)Oc2ccc(NS(=O)(=O)c3ccc(F)cc3)cc2CC1=O
  A: i; B: 2; C: 6; D: -3.0; E: -1.2
CO[C@H]1CN(C)C(=O)c2cc(NC(C)=O)ccc2OC[C@@H](C)N(Cc2ccccc2F)C[C@@H]1C
  A: i; B: -4; C: -5; D: 2.2; E: 1.5
O=S1(=O)N[C@H](Cc2ccccc2)COc2cccc(N3CCC[C@@H]3CO)c21
  A: i; B: 1; C: -15; D: -1.2; E: 5.0
C[C@H]1CN([C@@H](C)CO)C(=O)c2cccc(NS(=O)(=O)c3cn(C)cn3)c2O[C@@H]1CN(C)C(=O)Nc1ccccc1
  A: i; B: 4; C: 0; D: -0.9; E: -2.4
CS(=O)(=O)Nc1ccc2c(c1)[C@H]1C[C@H](CC(=O)NC3CCCC3)O[C@@H](CO)[C@H]1O2
  A: i; B: 4; C: 2; D: -0.3; E: -5.9
CO[C@@H]1CN(C)C(=O)c2cc(NC(=O)C3CC3)ccc2OC[C@@H](C)N(C(=O)CN(C)C)C[C@@H]1C
  A: i; B: -1; C: -2; D: -0.4; E: 0.2
O=C(Nc1ccc2c(c1)[C@@H]1C[C@@H](CC(=O)N3CCCCC3)O[C@@H](CO)[C@@H]1O2)C1CCOCC1
  A: i; B: 2; C: 1; D: 0.7; E: -3.9
COc1ccc(OCc2cc(C(=O)NC(C)c3nc(C)cs3)no2)c(Cl)c1 (stereo not given)
  A: i; B: -4; C: -33; D: -7.1; E: -5.7
CC(C)NC(=O)N[C@H]1C=C[C@@H](CC(=O)NCCCN(C)C)O[C@H]1CO
  A: i; B: -1; C: 6; D: 0.8; E: -0.6
Cc1ccc(-c2cnc3c(c2)C(=O)N([C@H](C)CO)C[C@H](C)[C@@H](CN(C)CC2CCCC2)O3)cc1
  A: i; B: 7; C: 11; D: 1.1; E: 3.1
C[C@@H]1CN([C@@H](C)CO)C(=O)Cc2cc(NC(=O)NC3CCCCC3)ccc2O[C@@H]1CN(C)Cc1ccc(-c2ccccc2)cc1
  A: i; B: 5; C: 3; D: -0.3; E: 0.1
C[C@@H](NC(=O)C[C@@H]1CC[C@H](NS(=O)(=O)c2cccc(F)c2)[C@@H](CO)O1)c1ccccc1
  A: i; B: -2; C: 0; D: 0.8; E: 0.7
C[C@H](CO)N1C[C@H](C)[C@H](CN(C)C)Oc2cc(-c3cccc(C(=O)N(C)C)c3)ccc2S1(=O)=O
  A: i; B: -1; C: -5; D: -4.3; E: -1.5
O=C(NC(c1ccc(F)cc1)c1cnccn1)C1CCN(CCOc2ccc(Cl)cc2Cl)CC1 (stereo not given)
  A: i; B: -2; C: -29; D: 8.7; E: 1.0
